# Source: PubChem
# KCNQ2 pot: potentiators of rat KCNQ2 potassium channel; AID 2239; CHO-K1 KCNQ2, FluxOR thallium flux fluorescence; active compounds read high; B-score at 10 µM; O88943; 310,000 compounds, 0.54% hits;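 active means fluorescence ratio B-score at least 3 SD of library B-scores, with initial fluorescence B-score within 3 SD, cut at about 5.3 in these data; same plate scores as AID 2156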;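 further: B-score of peak minus minimum over baseline fluorescence ratio after K+ and Tl+ stimulus; positive B-score means potentiation of KCNQ2 with more thallium influx and brighter signal; only the inactives scoring about 0 or higher are listed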
# Target sequence (O88943 whole entry, looked up): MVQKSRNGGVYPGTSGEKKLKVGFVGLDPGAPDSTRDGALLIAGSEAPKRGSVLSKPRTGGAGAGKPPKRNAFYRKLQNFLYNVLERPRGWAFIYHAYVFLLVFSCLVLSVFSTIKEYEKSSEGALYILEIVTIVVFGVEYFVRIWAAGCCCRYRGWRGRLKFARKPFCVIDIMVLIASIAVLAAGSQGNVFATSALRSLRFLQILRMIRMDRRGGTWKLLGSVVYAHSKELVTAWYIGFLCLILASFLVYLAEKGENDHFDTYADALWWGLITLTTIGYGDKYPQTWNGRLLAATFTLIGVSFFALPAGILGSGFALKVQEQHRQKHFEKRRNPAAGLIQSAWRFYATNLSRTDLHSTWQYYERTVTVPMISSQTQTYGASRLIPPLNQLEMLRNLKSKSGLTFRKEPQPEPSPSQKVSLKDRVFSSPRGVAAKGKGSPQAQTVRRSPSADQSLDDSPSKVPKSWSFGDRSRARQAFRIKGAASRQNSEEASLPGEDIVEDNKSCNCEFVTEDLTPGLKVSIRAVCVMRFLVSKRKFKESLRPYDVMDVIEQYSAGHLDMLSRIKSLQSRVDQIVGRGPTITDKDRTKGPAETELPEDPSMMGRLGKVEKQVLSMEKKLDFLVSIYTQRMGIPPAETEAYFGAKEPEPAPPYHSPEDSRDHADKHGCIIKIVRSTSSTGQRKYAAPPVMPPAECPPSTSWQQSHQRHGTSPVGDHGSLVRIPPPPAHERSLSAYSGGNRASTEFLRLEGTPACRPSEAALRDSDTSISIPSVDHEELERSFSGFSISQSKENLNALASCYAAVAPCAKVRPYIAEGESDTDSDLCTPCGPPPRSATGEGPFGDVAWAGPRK
# KCNQ2 pot baseline: second read-out of KCNQ2 pot, no call of its own (marks repeat the call); B-score; compound at 10 µM; measured here: initial fluorescence intensity artifact check;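 brightness before thallium and not channel activity; 0 = typical well and far values either way flag optical interference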
# The depositor's hits bear a star. An excerpt. The share of hits here may be higher or lower than overall.
# Start of the data: the first 3 records, to show the layout:
KCNQ2 pot	KCNQ2 pot baseline	canonical_smiles
0.32	1.42	Cc1ccc(S(=O)(=O)N/N=C\c2cc3c(cc2Br)OCO3)cc1
0.01	0.41	O=C(c1cc2ccccc2o1)N1CCN(S(=O)(=O)c2cccs2)CC1
2.34	-0.41	O=C(Cn1cnc2c(nnn2Cc2ccc(F)cc2)c1=O)Nc1cccc(F)c1

# The list itself, from the start:
KCNQ2 pot	KCNQ2 pot baseline	canonical_smiles
0.32	1.42	Cc1ccc(S(=O)(=O)N/N=C\c2cc3c(cc2Br)OCO3)cc1
0.01	0.41	O=C(c1cc2ccccc2o1)N1CCN(S(=O)(=O)c2cccs2)CC1
2.34	-0.41	O=C(Cn1cnc2c(nnn2Cc2ccc(F)cc2)c1=O)Nc1cccc(F)c1
1.28	0.91	CC(C)(C)c1cc(C(=O)NNC(=O)c2ccc(C(F)(F)F)cc2)no1
0.66	-0.54	O=C(NNC(=S)NC1CCCCC1)c1ccccc1Br
1.46	0	O=C(Cc1c(O)c2ccccc2[nH]c1=O)NCc1ccc(F)cc1
0.25	-1.65	CCN1C(=O)C(O)(CC(=O)c2ccccn2)c2ccccc21 (stereo not given)
0.52	0.44	Cc1c(F)cccc1NC(=O)CCC(=O)O
0.01	-2.07	O=C1CC(c2ccc(Cl)cc2)n2nc(N3C(=O)c4ccccc4C3=O)nc2N1 (stereo not given)
2.29	0.02	O=C(NCc1ccccc1)/C(=C/c1ccco1)NC(=O)c1ccco1
1.13	-3.22	S=C(Nc1ccc(Cl)cc1)c1nc2ccccc2[nH]1
0.05	3.34	O=C(c1cc(Br)c[nH]1)N1CCCCC1
0.68	-0.72	C=CCNC(=O)c1c(CSc2ccc(F)cc2)noc1C(=O)NCCC
2.16	1.14	O=C(CN1C(=O)C(=O)N(Cc2ccccc2)C1=O)Nc1ccc(F)c(Cl)c1
1.71	-1.34	COc1cccc(C(=O)NCc2n[nH]c(=S)n2-c2cccc(C)c2)c1
0.24	-0.71	CCS(=O)(=O)c1ccc2c(c1)N(S(=O)(=O)c1ccc(C)cc1)CC(C(=O)O)O2 (stereo not given)
5.72*	0.02*	CCCCn1c(=S)[nH]c2ccccc2c1=O
0.83	-0.02	COCC(=O)Nc1ccc([N+](=O)[O-])cc1OC
0.47	0.18	O=C(c1ccccc1S(=O)(=O)NCc1ccccc1)N1CCCC1
0.96	0.14	CCOCCCN(C)C1CCN(C(=O)c2oc3ccccc3c2NC(=O)COc2cccc(C)c2)CC1
0.53	1.4	COCc1nnc(NC(=O)c2ccccc2[N+](=O)[O-])s1
0.03	-1.39	CCOc1ccc(S(=O)(=O)NCCC(=O)NCC(c2cccs2)N(C)C)cc1 (stereo not given)
0.21	1.08	Nc1ccc(-n2nc(C(F)(F)F)cc2C(F)(F)F)cc1
0.24	0.19	Cc1cc(C)c(C(=O)NCC2CCCO2)c(C)c1C(=O)NCC1CCCO1 (stereo not given)
0.16	-1.55	CCOC(=O)c1nn(-c2ccc(F)cc2)c2nc(CC(C)C)c(C#N)c(=O)n12
0.2	-0.05	CC(C)(C)NC(=O)COc1coc(CN2CCN(Cc3ccccc3)CC2)cc1=O
0.56	0.15	CC(C)OCC(O)CN1CCN(CCN2C(=O)c3cccc4cccc(c34)C2=O)CC1 (stereo not given)
0.03	0	COc1cccc(C(=O)Nc2ccc(C(=O)O)cc2)c1
0.17	-1.02	N=c1c(C(=O)NCC2CCCO2)cc2c(=O)n3ccccc3nc2n1Cc1ccc(F)cc1 (stereo not given)
1.57	0.23	COc1cccc(NC(=O)CNC(=O)c2cccs2)c1

# Other structures follow.
KCNQ2 pot	KCNQ2 pot baseline	canonical_smiles
1.74	0.69	CCCc1cc(=O)[nH]c(SCC(=O)N(C)CC(=O)Nc2ccccc2CC)n1
1.56	-0.17	Cc1nc(NC(=O)CSc2nncs2)c(Cl)cc1Cl
0.47	1.7	CCC(C)[C@H](NC(=O)NCc1ccc(S(N)(=O)=O)cc1)C(=O)OC (stereo not given in full)
2.62	-0.84	CCCCn1nnnc1SCC(=O)NC1CCCCC1
2.29	-2.53	COc1cc(NC(=O)Cc2cccs2)cc(OC)c1
1.84	0.78	CCCc1nc(N)c(C#N)c(N)c1C#N
0.02	0.02	N#CC1=C(SCC(=O)NCc2ccccc2)NC(=O)CC1c1ccco1 (stereo not given)
0.36	1.51	COc1ccc(C(=O)Nc2cc3c(cc2N2CCOCC2)n(C)c(=O)n3C)cc1OC
1.27	-1.69	O=C(Cn1nc(CNc2ccc(Cl)cc2)[n+]2c1CCCCC2)c1ccc(Br)cc1
0.47	-1.2	CCCCN(CC)C(=O)C1CCC(CNS(=O)(=O)c2cccc3nsnc23)CC1 (stereo not given)
1.83	-0.4	COc1cc(C2C(C#N)=C(N)Oc3cc4c(cc32)OCO4)cc(OC)c1OC (stereo not given)
0.58	1.08	COc1ncccc1-c1nnn(-c2ccc(C)cc2)n1
2.31	-1.05	CCc1cc(C(=O)c2ccc(OC)cc2)c(NC(=O)CCC(=O)O)s1
2.03	0.13	O=C(CN1C(=O)C2C3C=CC(C3)C2C1=O)Nc1ccc(S(=O)(=O)N2CCCCC2)cc1 (stereo not given)
0.15	-3.71	CCS(CC)=NS(=O)(=O)c1ccc(NC(C)=O)cc1
0.43	-1.39	CC(=O)C1=C(C)N(CC2CC2)C(=O)N[C@H]1c1ccc(Br)cc1
0.24	-0.61	CCCCNC(=O)c1ccc2c(c1)ncn2C1CCCCC1
0.86	-0.04	O=C(c1ccccc1)N1CCOC12CCN(c1ncc(C(F)(F)F)cc1Cl)CC2
0.12	1.96	COc1ccc(C(=O)N2CCN(CCNC(=O)C(=O)Nc3ccc(F)cc3)CC2)cc1OC
0.5	0.95	Cc1cccc(C)c1NC(=O)C(NC(=O)CN1C(=O)c2ccccc2C1=O)c1ccccc1 (stereo not given)
0.23	1.12	O=C(Nc1ccccc1)c1ccc(S(=O)(=O)N2CCC(C(=O)O)CC2)cc1
0.08	0.01	CCCCn1c(SCC(=O)Nc2cc(NC(=O)c3ccco3)ccc2C)nc2ccccc2c1=O
2.19	-1.19	Oc1ccc(/C=N/Nc2nn3cnnc3c3ccccc23)cc1
0.91	-3.34	CCOC(=O)C(=Cc1c[nH]c2ccc(S(=O)(=O)N(C)C)cc12)C(=O)OCC
4.22	-1	CCc1ccc(N(C(=O)CNC(=O)c2ccco2)C(C(=O)NCC2CCCO2)c2ccccc2)cc1 (stereo not given)
0.33	-0.57	CC(=O)N1c2ccc(S(=O)(=O)N3CCC(C(=O)Nc4cccc(C)n4)CC3)cc2CC1C (stereo not given)
0.12	-0.83	O=C(CNC(=O)c1ccccc1F)N/N=C/c1cccs1
0.45	0.54	N#Cc1cc([N+](=O)[O-])ccc1Oc1cccc(/C=N/NC(=O)c2cccc(Cl)c2)c1
0.43	0.58	CCOC(=O)c1cc(OC(=O)c2cccc([N+](=O)[O-])c2)n(-c2ccccc2)n1
3.2	-1.86	COc1ccc(N/N=C(\C#N)C(=N)N2CCOCC2)cc1

# By substructure: the compounds so far with a Cl atom (7)
KCNQ2 pot	KCNQ2 pot baseline	canonical_smiles
0.01	-2.07	O=C1CC(c2ccc(Cl)cc2)n2nc(N3C(=O)c4ccccc4C3=O)nc2N1 (stereo not given)
1.13	-3.22	S=C(Nc1ccc(Cl)cc1)c1nc2ccccc2[nH]1
2.16	1.14	O=C(CN1C(=O)C(=O)N(Cc2ccccc2)C1=O)Nc1ccc(F)c(Cl)c1
1.56	-0.17	Cc1nc(NC(=O)CSc2nncs2)c(Cl)cc1Cl
1.27	-1.69	O=C(Cn1nc(CNc2ccc(Cl)cc2)[n+]2c1CCCCC2)c1ccc(Br)cc1
0.86	-0.04	O=C(c1ccccc1)N1CCOC12CCN(c1ncc(C(F)(F)F)cc1Cl)CC2
0.45	0.54	N#Cc1cc([N+](=O)[O-])ccc1Oc1cccc(/C=N/NC(=O)c2cccc(Cl)c2)c1

# Next part:
KCNQ2 pot	KCNQ2 pot baseline	canonical_smiles
0.29	0.78	Nc1c(Cl)ncnc1NCc1ccccc1
1.44	-2.19	Cc1sc2ncnc(SCC(=O)N3CCC(c4noc5ccc(F)cc45)CC3)c2c1C
2.63	-0.47	COc1ccc(-n2nc(C(=O)NCC(=O)NC(C)C)c3ccccc3c2=O)cc1Cl
0.1	0.17	Cc1cccc(C)c1NC(=O)c1cnccn1
0.81	2.87	CCOc1ccc(OCC(=O)OCC(=O)N(CC(C)C)c2c(N)n(Cc3ccccc3)c(=O)[nH]c2=O)cc1
0.78	0.61	COCCN1C(=O)C(=O)/C(=C(/O)c2cccc(S(=O)(=O)N(C)C)c2)C12C(=O)N(C)c1ccccc12 (stereo not given)
5.09	0.25	COc1cc([N+](=O)[O-])cc(/C=N\NC(=O)C2COc3ccccc3O2)c1O (stereo not given)
1.59	-0.17	C=CCN(C(=O)CCC(=O)Nc1cc(C)on1)C(C(=O)NC1CCCC1)c1ccc(Cl)cc1 (stereo not given)
0.99	-0.18	N#Cc1cccc(CN2CCC(=O)N(CCO)CC2)c1
0.65	-1.21	CC(NCc1ccc2c(c1)OCO2)C(=O)NC1CCCCC1 (stereo not given)
2.61	0.99	COc1cccc(NC(=O)NCCCCc2ccccc2)c1
0.03	1.3	COc1cccc(CNS(=O)(=O)c2c(C)nc3sccn3c2=O)c1
0.48	0.4	CSc1ccccc1OCc1cc(C(=O)NC(C)CCn2cccn2)no1 (stereo not given)
1.12	0.11	CC(=O)c1ccc(OCC(O)CN2C(C)CCCC2C)cc1 (stereo not given)
0.31	-0.43	c1ccc2c3c(c(CN4CCCCC4)cc2c1)COC3
0.3	0.36	CC(=O)C1C(c2ccccc2)c2c(noc2C)CC1(C)O (stereo not given)
0.03	-0.52	CC(C)C[C@H](NC(=O)c1nc[nH]c1C(=O)NCc1ccc(CNC(=O)OC(C)(C)C)cc1)C(=O)OCc1ccccc1
8.35*	2.72*	Cc1noc(C)c1COc1cccc(C(=O)OCC(=O)NCCN2C(=O)CSC2=O)c1
3.22	2.8	CCOC(=O)C1(CCOC)CCN(Cc2cnc(-c3cccc(C)c3)nc2)CC1
1.81	-0.05	COc1ccc(NC(=O)c2ccc(Cl)c(S(=O)(=O)NCC3CCCO3)c2)c(OC)c1 (stereo not given)
1.41	-0.64	COc1ccc(/C=N/NC(=O)c2nn(-c3ccc(Cl)cc3)c(=O)c3c(N)scc23)cc1
3.88	-2.93	C=CCN(CC=C)C(=S)NC(=O)Cc1cccc2ccccc12
0.7	-0.52	CCN(CC)C(=O)N1CCN(S(=O)(=O)c2ccc(C)c(C)c2)CC1
0.27	-1.66	O=C1CCN(Cc2nnnn2CC2CCCO2)c2ccccc2N1 (stereo not given)
0.71	1.63	CCOC(=O)C1=C(COC(=O)/C=C/c2ccc(OC)cc2OC)NC(=O)NC1C (stereo not given)
0.14	0.43	COc1c(S(=O)(=O)n2nc(C)cc2C)ccc(Cl)c1Cl
0.03	-0.36	FC(F)(F)c1cc(-c2ccco2)nc(N2CCOCC2)n1
0.01	0.82	Cc1cccc(NC(=O)C2CCCN(S(=O)(=O)c3cccc4cccnc34)C2)c1 (stereo not given)
0.46	1.17	CCOc1ccc(C2/C(=C(\O)c3ccc4c(c3)OCCO4)C(=O)C(=O)N2CCN2CCOCC2)cc1OC (stereo not given)
0.2	1.77	O=C1OC(N2C(=O)CC[C@H]2C(=O)Nc2ccc(F)c(F)c2)c2ccccc21 (stereo not given in full)

# 3 entries from above, tab-delimited:
SMILES	KCNQ2 pot	KCNQ2 pot baseline
Cc1cccc(NC(=O)C2CCCN(S(=O)(=O)c3cccc4cccnc34)C2)c1 (stereo not given)	0.01	0.82
CCOc1ccc(C2/C(=C(\O)c3ccc4c(c3)OCCO4)C(=O)C(=O)N2CCN2CCOCC2)cc1OC (stereo not given)	0.46	1.17
O=C1OC(N2C(=O)CC[C@H]2C(=O)Nc2ccc(F)c(F)c2)c2ccccc21 (stereo not given in full)	0.2	1.77

# The list continues.
KCNQ2 pot	KCNQ2 pot baseline	canonical_smiles
0.91	0.44	COc1ccc(C(=O)C2CCCN(C(=O)Cn3cncn3)C2)cc1OC (stereo not given)
0.05	0.64	CC(O)CCC(=O)NCCNC(=O)CCC(C)O (stereo not given)
0.22	0.1	COCCNC(=S)N1C2CCC1CC(NC(=O)NC13CC4CC(CC(C4)C1)C3)C2 (stereo not given)
7.9*	-0.52*	O=C(NC(=S)Nc1nc(-c2ccccc2)cs1)c1cccs1
0.07	-0.13	c1ccc2sc(N3CCOCC3)nc2c1
0.43	-0.05	COC(=O)c1ccc(C2c3[nH]c4ccccc4c3C[C@H]3C(=O)N(C)CC(=O)N23)cc1 (stereo not given in full)
0.02	-2.32	Cc1ccnn1CC(=O)N/N=C/c1c[nH]c2ccccc12
0.57	-0.55	CNC(=O)CC1C(=O)N(c2ccc(Cl)cc2)C(=S)N1CCc1ccc(OC)c(OC)c1 (stereo not given)
1.07	0.33	NNC(=O)CN1C(c2ccccc2)=Nc2ccc(Br)cc2C1c1ccccc1 (stereo not given)
0.45	-1.94	CCOC(=O)c1c(C)[nH]c(=S)c(C#N)c1-c1ccc(OC)cc1
0.99	-0.84	CC(=O)N1CC23C=CC(CC2CC12CCCCCC2)O3 (stereo not given)
0.12	-0.01	CCOC(=O)Cc1nc(-c2ccccc2)n[nH]1
0.63	-0.83	Cc1cc(=S)[nH]c2c(C)cccc12
2.19	-2.53	O=C(NCC1CCCO1)C1C2C=CC3(CN(Cc4cccs4)C(=O)C13)O2 (stereo not given)
0.77	-1.31	Cn1c(=O)c(C(=O)CN2CCN(Cc3ccc4c(c3)OCO4)CC2)c(N)n(Cc2ccccc2)c1=O
1	-0.08	COc1cccc(CNC(=O)C2CC(=O)N(C3CCCCCCC3)C2)c1 (stereo not given)
0.02	-2.28	CCc1ccc(NS(=O)(=O)c2cccc3nsnc23)cc1
0.99	-1.77	CCSc1ncc(Cl)c(C(=O)Nc2ccccc2)n1
0.12	-1.48	COC(=O)c1cncc(O)c1
0.25	-2.69	COc1nc(C)nc2c1sc(=S)n2C
0.46	0.21	O=C(NCCCn1ccnc1)c1cc2c(s1)CCCCC2
